ClpP mod: qHTS Assay for Activators of ClpP; ATP-dependent Clp protease proteolytic subunit (Bacillus subtilis (strain 168)), P80244; purified B. subtilis ClpP, FRET peptide cleavage, 20 min; Potency, µM (series often up to 57.5 µM), without a hit: at the highest dose activity change, negative = active; 340,000 tested, 1.9% active; AID 651965, 2013; active = well fitted falling curve with a large enough effect; inconclusive = small, poorly fitted or top-dose-only effect; inactive = no such curve, though single readings can be large or run the other way; also: potency is read from the fitted curve at half-maximal effect; the source files actives as falling curves though it sought activators and does not explain the sign; nearly all actives have a fitted effect of over 65% in size; many hits overshoot -100%
Target sequence (P80244 whole entry, looked up): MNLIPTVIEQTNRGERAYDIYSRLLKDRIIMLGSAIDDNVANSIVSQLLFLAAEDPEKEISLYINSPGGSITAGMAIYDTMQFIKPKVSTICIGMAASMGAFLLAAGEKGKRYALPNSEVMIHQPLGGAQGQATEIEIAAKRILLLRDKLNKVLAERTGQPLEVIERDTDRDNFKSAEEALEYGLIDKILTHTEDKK
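FRET quenching reversal measured ClpP activation: 10 microg/mL B. subtilis ClpP at pH 8 with the FRET-FV decapeptide, read at 430 nm after 320 nm excitation. The 20-min minus 0-min signal was scaled between DMSO/no-enzyme wells and ADEP (5.8 microM final).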
Menin MLL FP FL: displaces fluorescein MLL peptide from human menin; 290,000 tested, under 10 active; AID 1766; Fluorescence polarization, fluorescein-MLL peptide displacement from menin; FP activity change, % at 61.4 µM; inconclusive = falling polarisation curve, or a change in total fluorescence; inactive = total fluorescence flat and polarisation flat or rising; no compound was filed as active; the % refers to the polarisation; negative = inhibition;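 also: % of control where 0% means no effect; inhibitors lower the polarisation; unlabelled MLL peptide was the positive control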
gsp antag: gsp mutant antagonism. Potency, µM (highest dose often 76.9 µM), for inactives: at the top dose activity change, negative = inhibition, most hits filed as inhibitors. gsp-mutant cells, cAMP HTRF, 30 min; control for the full effect not named in the record. 340,000 tested, 0.4% active. AID 624288; active = falling curve of any shape with a large fitted effect; inconclusive = falling curve, mostly with a smaller effect; inactive = flat or rising curve; cell line not stated here;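 also: intracellular cAMP measured with PDE inhibitor Ro 20-1724 present during compound exposure; potency is read from the fitted curve at half-maximal effect; % is scaled to controls: 0 for no effect and ±100 for the full control effect; nearly all actives have a fitted effect of over 65% in size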
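G418-selected cells were plated in DMEM/10% FBS for 16-24 h at 37C, then treated with compounds plus the PDE inhibitor […] (300 uM solution added) for 30 min at 37C. Intracellular cAMP was measured by HTRF after 30 min lysis at room temperature.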
D2 potentiator: potentiates the human D2 dopamine receptor allosterically; potentiation, % (no concentration beside the values); 360,000 tested, 0.23% active; P14416; DiscoveRx D2 beta-arrestin cells, luminescence, 90 min; 100% = 57 uM dopamine signal; active = potentiation of 50% or more; inconclusive = 30% to 50%; inactive = 30% or less;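 also: compound concentration not given in the record; tested on top of an EC20 dose of dopamine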
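D2 cells co-treated with compound plus 50 nM dopamine (EC20) for 90 min at 37 deg C to detect potentiation. Beta-arrestin recruitment was read as enzyme-fragment luminescence after 1 h at ambient temperature. Full response was set by 57 uM dopamine.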
gsp ag: gsp mutant agonism; gsp mutant cells, cAMP HTRF, 30 min; control for the full effect not named in the record; 340,000 tested, 0.13% active; Potency, µM (top dose mostly 76.9 µM), for the others: at the highest dose activation (cAMP increase), usual class: activators; active = well fitted activation curve with a large enough effect; inconclusive = small, poorly fitted or top-dose-only effect, or another doubt; inactive = no such curve, though single readings can be large or run the other way; cell line not stated here;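 also: phosphodiesterase inhibitor Ro 20-1724 added with compounds to block cAMP breakdown; potency is read from the fitted curve at half-maximal effect; nearly all actives have a fitted effect of over 60% in size; about a fifth of the inactives were tested at one dose only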
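Cells in DMEM/10% FBS with G418 were pretreated with compounds in DMSO plus […] (300 uM stock) for 30 min at 37C. cAMP was measured by HTRF (cAMP-d2 plus anti-cAMP antibody-K) after 30 min at room temperature.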
Sfp inh: blocks B. subtilis Sfp PPTase activity. 310,000 tested, 3.5% active. Potency, µM, for the others: max response, negative = inhibition, most hits filed as inhibitors. AID 1490. Q9F4F7. Biochemical Sfp PPTase activity, qHTS; active = well fitted inhibition curve with a large enough effect; inconclusive = small, poorly fitted or top-dose-only effect, or another doubt; inactive = no such curve, though single readings can be large or run the other way;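 also: the enzyme is Sfp with the accession as filed and its product quenches rhodamine fluorescence; potency is read from the fitted curve at half-maximal effect; 0% = enzyme reaction without inhibitor and -100% = no enzyme wells; top concentration of the series not given in the record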
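With Hepes-Na pH 7.6 buffer containing 10 mM MgCl2, Sfp (15 nM) modified BHQ-2-YbbR (12.5 uM) using rhodamine-CoA (5 uM). Two reads 30 minutes apart at 525/598 nm yielded each well's rate.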
TRPV1 PAM: enhances activation of the human vanilloid receptor TRPV1 | TRPV1-expressing cells, Fluo-8 calcium influx, capsaicin EC20 potentiation; host cell line not named in the record; control for the full effect not named in the record | potentiation, % at 8.33 µM | 320,000 tested, 0.02% active; active means potentiation above 80%; inconclusive means 30% to 80%; inactive means below 30%; also: 0% is about no effect
Target sequence (Q8NER1 whole entry, looked up): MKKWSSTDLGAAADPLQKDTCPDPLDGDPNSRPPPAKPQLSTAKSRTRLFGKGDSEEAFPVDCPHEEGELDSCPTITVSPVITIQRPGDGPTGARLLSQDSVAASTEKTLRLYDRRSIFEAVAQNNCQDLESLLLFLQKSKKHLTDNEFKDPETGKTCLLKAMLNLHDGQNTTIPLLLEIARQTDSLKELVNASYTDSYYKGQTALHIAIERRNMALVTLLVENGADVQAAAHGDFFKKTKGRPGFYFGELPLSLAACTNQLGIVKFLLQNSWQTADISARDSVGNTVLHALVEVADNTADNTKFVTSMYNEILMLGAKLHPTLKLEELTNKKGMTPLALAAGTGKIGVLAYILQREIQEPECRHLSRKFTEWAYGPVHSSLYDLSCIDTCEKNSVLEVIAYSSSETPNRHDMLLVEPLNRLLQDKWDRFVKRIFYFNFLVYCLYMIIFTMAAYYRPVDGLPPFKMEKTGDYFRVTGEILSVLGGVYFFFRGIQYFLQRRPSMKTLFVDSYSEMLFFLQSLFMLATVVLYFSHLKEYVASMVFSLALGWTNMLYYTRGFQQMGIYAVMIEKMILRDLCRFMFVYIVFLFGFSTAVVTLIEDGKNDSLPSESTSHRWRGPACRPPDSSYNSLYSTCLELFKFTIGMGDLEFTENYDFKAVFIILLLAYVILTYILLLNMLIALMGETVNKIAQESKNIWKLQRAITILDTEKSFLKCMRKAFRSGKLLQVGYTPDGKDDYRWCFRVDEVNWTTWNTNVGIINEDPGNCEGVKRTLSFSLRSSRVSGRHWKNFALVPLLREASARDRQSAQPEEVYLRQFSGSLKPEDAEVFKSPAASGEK
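Fluo-8 calcium influx in TRPV1-expressing cells, kinetic read (ex 480/em 520 nm). Compound added and read 3 min for agonist activity, followed by capsaicin at EC20 final and 2 min further read for enhancement.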
* marks the source's active call; other numbers are inactive results; ? = inconclusive; / = not tested or not shown; & = joins results of further samples; [ ] = remark or other dose.

SMILES | ClpP mod | Menin MLL FP FL | gsp antag | D2 potentiator | gsp ag | Sfp inh | TRPV1 PAM
O=C(COc1cc2oc(=O)c3c(c2cc1Cl)CCC3)NCCCN1CCOCC1 | -6.3% | / | -3% | -27 | ? | 15% | 4
CN(C)c1nc2ccccc2c(N)c1-c1ccccc1 | -11% | 3.3 | 1% | -15 | ? | 79µM* | 3
Cc1ccc(S(=O)(=O)N2CCN(CCOc3cccc(C)c3)CC2)cc1 | -3.1% | / | -9% | -4 | -13% | / | -15
CN(C)c1ccc(/C=C2/NC(=O)NC2=O)cc1 | 1.7% | / | ? | -1 | -27% | 10% | 1
Cc1cc(-c2ccc(S(=O)(=O)N3CCN(c4cccc(C(F)(F)F)c4)CC3)s2)on1 | -11% | -1.8 | -1% | -1 | -2% | 8% | -4
COc1ccc(S(=O)(=O)N2CCN(C(=O)c3ccccc3Cc3ccccc3)CC2)cc1OC | -1.3% | / | / | -3 | ? | / | /
COC(=O)c1ccc(CN2C(=O)NC(CC(C)C)C2=O)cc1 (stereo not given) | 1.2% | 1.2 | 0% | -6 | -5% | 8% | 2
CCOC(=O)N1CCN(Cc2nc3cc([N+](=O)[O-])ccc3n2C)CC1 | / | ? | -7% | 0 | 26% | 12% | 12
Oc1ccc2ccccc2c1C=Nc1ccccc1-c1nc2ccccc2[nH]1 | ? | 7.5 | 2% | 53* | 11% | 4% | 7
Cn1c(N=NC(=O)c2ccccc2)c(O)c2ccccc21 | -0.3% | 10 | ? | -13 | -1%[15.4 µM] | 4% | -16
COC(=O)c1[nH]c2ccccc2c1NC(=O)CN1CCCCCC1 | -13% | 4.2 | 7% | -31 | 0% | 9% | /
CC(O)(CS(=O)(=O)Cc1cccc(C(F)(F)F)c1)C(=O)Nc1cccc(C(F)(F)F)c1 (stereo not given) | 0.9% | 0.9 | 3% | -4 | -2% | 15% | /
CCC(C)N(C(=O)Cn1c(Cl)nc2c1c(=O)n(C)c(=O)n2C)C1CCS(=O)(=O)C1 (stereo not given) | -1.1% | / | 5% | 2 | 5% | 8% | 6
COc1cc(C(=O)NCC(c2cccs2)N(C)C)cc(Cl)c1OC(C)C (stereo not given) | -8.6% | / | -3% | -30 | -47% | 2% | -2
COc1ccccc1C(=O)NCCC(=O)Nc1cccc(S(=O)(=O)N2CCCC2)c1 | 1.6% | / | -8% | 3 | 20% | / | ?
CC(=O)c1ccc(OCC(=O)OCC(=O)Nc2sccc2C(N)=O)cc1 | 0.8% | / | ? | 2 | 19% | / | -8
C=CCN(c1ccc(Br)cc1C(=O)OC)S(C)(=O)=O | 0.1%&0.0% | / | 7% | -1 | / | / | 7
O=C(CSc1nnc2ccccn12)Nc1ncc(Cl)cc1Cl | -7.1% | 1.3 | 16% | -10 | ? | 15% | -9
Cn1ccc(C(=O)N/N=C/c2c[nH]c3ccccc23)n1 | / | 0.5 | -11% | -3 | -30%[15.4 µM] | 14% | 4
CC1CCCN(S(=O)(=O)c2ccc(NC(=O)C3CC(=O)N(C(C)(C)C)C3)cc2)C1 (stereo not given) | 0.5% | / | -9% | -20 | 0%[15.4 µM] | / | 19
Cc1cc(=O)[nH]c(SCC(=O)c2ccc3c(c2)NC(=O)CO3)n1 | / | 1.9 | 2% | 3 | -12%[15.4 µM] | 2% | -11
O=C(COC(=O)c1ccco1)c1ccc(Cl)cc1 | / | -2.3 | 8% | -7 | 12% | -1% | -8
CCOCCCn1c(=NC(C)=O)c(C#N)cc2c(=O)n3ccccc3nc21 | / | 0.9 | -5% | -11 | 1%[15.4 µM] | -4% | 1
COC(=O)Cc1c(O)ccn(Cc2ccc(OC)c(OC)c2)c1=O | -6.7% | 0.6 | 6% | 4 | -11%[15.4 µM] | 7% | 10
COc1cc2c(cc1OC)C(c1ccc(OC)c(OC)c1OC)CC(=O)N2 (stereo not given) | 0.7% | -0.4 | 4% | 0 | -21% | 1% | 0
Additional results
SMILES | ClpP mod | Menin MLL FP FL | gsp antag | D2 potentiator | gsp ag | Sfp inh | TRPV1 PAM
CCn1c(SCC(=O)Nc2cc(S(=O)(=O)N3CCOCC3)ccc2OC)nnc1-c1ccncc1 | 1.4% | 1.8 | 2% | 12 | -2% | 19% | -7
Cc1cc(-n2c(C)cc(C(=O)CSc3ccccn3)c2C)no1 | / | / | -10% | -1 | ? | / | /
CC1(C)NC(=O)N(CCC(=O)Nc2ccc(C(C)(C)C)cc2)C1=O | 0.0% | / | / | -7 | 20% | / | /
Cc1ccc(S(=O)(=O)N(C)CC(=O)N2CCCC2)cc1 | 0.8% | 1.5 | 9% | 5 | 22% | 21% | -11
CCC(C)NC(=O)C1(NC(=O)Nc2ccccc2)CCCCC1 (stereo not given) | 1.9% | 0.3 | 1% | -10 | 0% | 15% | -8
Cc1cc(SCC(=O)N2CCCC2)nc2ccccc12 | -0.2% | 0.2 | -12% | -10 | 11% | 8% | -14
CCOc1ccc(C(=O)NNC2CC(=O)N(Cc3ccc(Cl)cc3)C2=O)cc1OC (stereo not given) | -0.5% | 2.3 | -4% | -4 | 7%[15.4 µM] | 6% | 2
CN(C)c1ccc(C(=O)c2ccccc2C(=O)O)cc1[N+](=O)[O-] | / | 0.6 | 5% | -9 | -1% | 17% | 11
Cc1[nH]c2ccc(F)cc2c1CCN(Cc1ccco1)C(=S)NC(C)(C)C | -5.2% | -4.3 | 2% | -4 | -33%[inhibitor] | 2% | 8
CN1CCN(C(=O)CN(C2CCCCC2)S(=O)(=O)c2ccc(Br)cc2)CC1 | 0.6% | 1.5 | 3% | -6 | -8% | 17% | 18
Cc1c(NC(=O)c2ccc3nsnc3c2)cccc1[N+](=O)[O-] | -1.8% | -1.9 | -4% | -14 | 7% | -1% | -21
O=C(Nc1cc([N+](=O)[O-])ccc1O)c1cccc([N+](=O)[O-])c1 | / | 0.7 | ? | -9 | -21% | 1% | 10
CCN(CC)S(=O)(=O)c1cccc(-c2n[nH]c(=S)n2CC(C)C)c1 | / | -4.5 | / | -9 | -11%[15.4 µM] | -30% | -2
COC(=O)c1ccc(C2NC(C(=O)O)CS2)cc1 (stereo not given) | -7.9% | -4.2 | 4% | -3 | -5% | 56µM* | 12
CCOc1ccc(C(O)Cn2c(=N)n(CCN3CCCCC3)c3ccccc32)cc1 (stereo not given) | -0.3% | 1.8 | 3% | -7 | -39%[inhibitor] | 6% | 3
CCc1ccc(Nc2nc(N3CCOCC3)nc(N3CCOCC3)n2)cc1 | -0.1% | / | ? | -5 | -15% | -2% | -16
CCS(=O)(=O)c1ccc(C(=O)Nc2cccc(Cl)c2)c(Cl)c1Cl | 1.6% | 1.5 | -3% | -15 | 3% | -4% | 5
Cc1ccc(C(=O)N[C@H](C(=O)Nc2cc(Cl)cc(Cl)c2)C(C)C)cc1 | 3.1% | 0.9 | 8% | -6 | -17%[15.4 µM] | 25% | 0
COCCN(CC(=O)NC1CCCCC1)C(=O)CSc1nc2ccccc2o1 | 1.1% | 4.9 | 2% | -3 | -7% | 8% | 6
Fc1ccc(Nc2nc(-c3cccnc3)cs2)cc1 | 0.6% | 0.7 | -12% | -6 | 7% | 11% | -4
Cc1cc(NC(=O)CSCc2ccccc2)no1 | 2.0% | -0.8 | 7% | -5 | -27% | 10% | 5
O=C(NCC1CCCN1S(=O)(=O)c1cccs1)c1ccc([N+](=O)[O-])cc1 (stereo not given) | / | / | -10% | 2 | -1%[15.4 µM] | / | 9
CN(C)Cc1c(C(=O)N/N=C/c2cccs2)nnn1-c1nonc1N | -1.4% | -4.9 | 1% | -7 | -8%[15.4 µM] | 16% | 4
CC(C)CC1c2[nH]c3ccccc3c2CCN1CCCn1cccn1 (stereo not given) | / | -0.2 | 9% | 0 | 27%[15.4 µM] | 7% | -1
Cc1ccsc1/C=N/NC(=O)Cc1cc(=O)[nH][nH]1 | -0.3% | 1.3 | 18% | -12 | 24% | -4% | -2
More entries follow:
SMILES | ClpP mod | Menin MLL FP FL | gsp antag | D2 potentiator | gsp ag | Sfp inh | TRPV1 PAM
COc1ccc(/C=N/NC(=O)c2ccccc2O)cc1Cn1cc(Cl)cn1 | -1.3% | 1.3 | -32% | -54 | -36%[inhibitor] | 1% | 3
CCOC(=O)C(NC(=O)CC)(Nc1sc2c(c1C(=O)OC)CCN(C)C2)C(F)(F)F (stereo not given) | ? | 4.6 | 7% | -21 | -33%[inhibitor] | 7% | -5
CCS(=O)CC(=O)Nc1c(-c2ccccc2)oc2ccccc2c1=O (stereo not given) | / | -1.1 | 3% | -1 | 9%[15.4 µM] | 5% | -16
CCCNc1c(NS(=O)(=O)c2ccc(Cl)s2)c(=O)oc2ccccc12 | -4.3% | -3.2 | -14% | -8 | 3% | -5% | -14
Cc1cc(N2CCOCC2)ncc1[N+](=O)[O-] | 0.8% | 4.4 | -2% | -6 | ? | 17% | 23
CC(C)OCCCN(C)C1CCN(S(=O)(=O)c2csc(C(N)=O)c2)CC1 | -2.0%&0.8% | 0.5 | 9% | -16 | ? | 12% | 3
CC1CN(c2nc3ccccc3nc2C(C#N)C(=O)NC2CCCCC2)CC(C)O1 (stereo not given) | / | ? | / | / | / | ? | -5
Cn1c(SCC(=O)Nc2sccc2C(N)=O)nc2ccccc2c1=O | -0.3% | / | 3% | -10 | -3%[15.4 µM] | / | /
O=c1c2c3c(sc2nc(N2CCNCC2)n1-c1cccc(Cl)c1)CCCCC3 | / | 1.1 | / | / | / | 11% | -18
CCc1ccc2[nH]c(=O)c(C3C(C#N)=C(N)Oc4c3ccc3cccnc43)cc2c1 (stereo not given) | ? | 4.7 | 7% | -8 | ? | -26% | -3
Cc1ccc(O)c(C2=Nc3ccccc3C2(C)C)c1 | -0.1% | 13 | 2% | -7 | -1% | -12% | -6
COC(=O)C1CN(C(=O)COc2ccc(C)c(C)c2)c2ccccc2O1 (stereo not given) | / | 3.5 | -10% | -5 | -29% | 4% | -1

From PubChem
